# Screens as filed in PubChem.
# Biofilm kill mix: mixture kills Candida albicans biofilm cells | inhibition, % at 7.6 µM | AID 1242 | C. albicans biofilm persisters + clotrimazole, fluorescence viability; primary screen in compound mixtures of four per well | 120,000 compounds, 0.02% hits;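 active = inhibition above 30.3% in the primary screen of four-compound pools, then above 30% when the compound was retested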;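 also: compounds exposed to preformed 24 h biofilms for 48 h; the number belongs to the whole pool; some results filed as inactive read as strong as hits; inactives centre near 12; 0% = biofilm with clotrimazole alone and 100% = kill control; retested singly at about 60 µM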
#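 Probe or stimulus – Clotrimazole 50 µg/mL co-treatment · System – C. albicans biofilms · Schedule – 24 h biofilm formation, then 48 h compound exposure, 37 °C · Evaluation – percent inhibition of biofilm viability · Technique – 2-h Alamar Blue fluorescence, 535/590 nm excitation/emission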
# * = called active by the depositor. The list is partial (hit frequency here may not be typical).
no.	Molecule	Biofilm kill mix
1	C/C(=N\Nc1ccc2nncn2n1)c1ccco1	12
2	COc1ccc(/C=N/Nc2nnc(Cc3ccc(OC)c(OC)c3)c(=O)[nH]2)cc1OC	8
3	Cc1ccc(CSCC(=O)NCc2ccc(F)cc2)cc1	15
4	CCCCOC(=O)Oc1ccc2c(=O)c(Oc3cc(C)cc(C)c3)coc2c1	16
5	Nc1nc(SCC(=O)Nc2c(Br)cc([N+](=O)[O-])cc2Br)n[nH]1	6
6	CCN(CC)CC#CCC(O)(c1ccccc1)c1ccccc1	2
7	CC(C)OC(=O)c1ccc(NC(=O)c2cncc(Br)c2)cc1	14
8	O=C(NCCc1ccccn1)c1cc(-c2ccc(Cl)c(Cl)c2Cl)nc2ccccc12	4
9	N#Cc1c(N)nc(Sc2ccc(Cl)cc2)c(C#N)c1-c1ccccc1Cl	12
10	COCCN=c1scc(-c2cccs2)n1/N=C(\C)c1ccco1	13
11	CCN(CC(=O)c1c(N)n(C)c(=O)n(C)c1=O)c1cccc2ccccc12	21
12	O=C1CCC(/C=C/c2ccccc2)=NN1	-2
13	Cc1ccc(S(=O)(=O)N(C)c2ccc(OCC(=O)Nc3nnc(C4CC4)s3)cc2)cc1	6
14	O=C(CSc1nccn1-c1ccc(Cl)cc1)N1CCCc2ccccc21	15
15	CC(C)CN(CCOc1cccc(N2C(=O)C3=C(CCCC3)C2=O)c1)CC(C)C	12
16	CCCCC(=O)NC(=S)NNS(=O)(=O)c1ccccc1	10
17	Cc1ccc(S(=O)(=O)N2CCN(CC(=O)N/N=C\c3ccc(O)c(O)c3)CC2)cc1	28
18	Nc1nc(SCC(=O)Nc2ncc(C(F)(F)F)cc2Cl)n[nH]1	15
19	CN(C)CCCNC(=O)/C(=C\c1ccc(-c2cccc([N+](=O)[O-])c2)o1)NC(=O)c1ccccc1	34
20	Fc1ccc(NC(=S)NC2CC3CCCC(C2)N3Cc2cccs2)cc1 (centres undefined)	-8
21	O=C1CC(c2c[nH]c3ccccc23)C(=O)N1c1ccccc1 (centres undefined)	15
22	CCOc1ccc(C(=O)CCC(=O)NC(C)C(=O)OC)cc1 (centres undefined)	8
23	CC(C)NC(=O)COC(=O)c1cc(Br)ccc1Cl	13
24	CCN(CC)S(=O)(=O)c1cc([N+](=O)[O-])ccc1N=Nc1c(O)[nH]c2ccccc12	7
25	CC(C)(C)C1CCC(=NNS(=O)(=O)c2ccc(Br)cc2)CC1 (centres undefined)	13

# Some of the entries so far, with each value named:
14: O=C(CSc1nccn1-c1ccc(Cl)cc1)N1CCCc2ccccc21
  Biofilm kill mix = 15

15: CC(C)CN(CCOc1cccc(N2C(=O)C3=C(CCCC3)C2=O)c1)CC(C)C
  Biofilm kill mix = 12

# Later entries:
no.	Molecule	Biofilm kill mix
26	CCCCCCC(=O)Nc1ccc(Br)cn1	19
27	CCOC(=O)C(=CNc1ccc(S(N)(=O)=O)cc1)C(=O)OCC	25
28	CCc1nnc(NS(=O)(=O)c2ccc(NC(=O)c3cccc4ccccc34)cc2)s1	15
29	c1ccc(-c2ccccc2OCCCCN2CCCCC2)cc1	16
30	C=CCn1c(SCC(=O)NCc2ccco2)nc2sc(C)c(C)c2c1=O	14
31	Cc1ccc(N2CCN(/N=C/C3=C(N4CCOCC4)C(=C\c4ccccc4)/CC3)CC2)cc1	9
32	CCCNC(=O)CCc1cc(C(C)(C)C)c(O)c(C(C)(C)C)c1	21
33	Cc1ccc(C2=NN(CC(=O)NCc3ccco3)C(=O)CC2)cc1	13
34	Brc1cccc(CNc2nc3ccccc3n2CCN2CCCCC2)c1	16
35	CC(C(=O)Nc1ccc2c(c1)OCCO2)N(c1ccccc1)S(C)(=O)=O (centres undefined)	13
36	Cc1cc(C)nc(-n2ncc3c2CC(c2ccccc2)CC3=O)n1 (centres undefined)	14
37	CN(C)c1ccc(C(=O)C(O)c2ccccc2)cc1 (centres undefined)	16
38	O=C(NCCc1ccc(Cl)cc1)Nc1ccc(Cl)cc1	9
39	O=C(Nc1ccc(N2CCN(C(=O)c3cccs3)CC2)c(Cl)c1)c1cccnc1	1
40	CCC(C)c1ccccc1NC(=O)C(C)NCCN(C)C (centres undefined)	18
41	O=[N+]([O-])c1cccc2c(Cl)ccnc12	16
42	Cc1cccc(NC(=S)N(CCN(C)C)Cc2cccs2)c1	20
43	CN=C1NN=C(c2cc(C)n(-c3c(C)n(C)n(-c4ccccc4)c3=O)c2C)CS1	12
44	COc1ccc(CNCCSc2nnnn2C)c(OC)c1OC	-3
45	O=C(CN1C(=O)C2CCCCC2C1=O)N1CCN(c2ncccn2)CC1 (centres undefined)	14
46	Cc1nc(C)c(CCNC(=O)c2ccc(C(F)(F)F)cc2)s1	10
47	CC1=C(C#N)CCC(=O)N1Cc1c(F)cccc1Cl	2
48	CCOC(=O)N1CCN(S(=O)(=O)c2ccc([N+](=O)[O-])cc2)CC1	12
49	O=C(COc1ccc(Cl)cc1)Nc1ccc(Cc2ccncc2)cc1	5
50	Cc1cc(C)c(C2C3=C(Nc4c2c(C)nn4-c2ccccn2)c2ccccc2C3=O)c(C)c1 (centres undefined)	13

# Seven entries from above, arranged by SMILES length, falling.
no.	Molecule	Biofilm kill mix
31	Cc1ccc(N2CCN(/N=C/C3=C(N4CCOCC4)C(=C\c4ccccc4)/CC3)CC2)cc1	9
30	C=CCn1c(SCC(=O)NCc2ccco2)nc2sc(C)c(C)c2c1=O	14
46	Cc1nc(C)c(CCNC(=O)c2ccc(C(F)(F)F)cc2)s1	10
34	Brc1cccc(CNc2nc3ccccc3n2CCN2CCCCC2)c1	16
47	CC1=C(C#N)CCC(=O)N1Cc1c(F)cccc1Cl	2
44	COc1ccc(CNCCSc2nnnn2C)c(OC)c1OC	-3
41	O=[N+]([O-])c1cccc2c(Cl)ccnc12	16

# Following part
no.	Molecule	Biofilm kill mix
51	CC12CCC(C(=O)NCc3ccccc3Cl)(OC1=O)C2(C)C (centres undefined)	7
52	CN(C)/C=C1\SC(=S)N(c2ccc(F)cc2)C1=O	30
53	Cc1nnc(SC(C(=O)Nc2ccc(Cl)c([N+](=O)[O-])c2)c2ccccc2)[nH]c1=O (centres undefined)	10
54	S=C(NCCCN1CCOCC1)Nc1ccc(Cl)c(Cl)c1	19
55	COc1ccc(C2CC(=O)c3cnn(-c4nc(C)cc(C)n4)c3C2)cc1OC (centres undefined)	15
56	Nc1cc(Cl)ccc1N1CCCCC1	22
57	COc1cccc(/C=C/c2nc3c(cnn3-c3ccccc3)c(=O)[nH]2)c1	2
58	CCCCN(CC)CCCNC(=O)C1CCN(c2ncnc3c2sc2cccc(F)c23)CC1	26
59	Cc1ccc(C(=O)Nc2nc(-c3ccccc3)c(-c3ccccc3)o2)cc1	11
60	O=C(CN1CCN(Cc2ccccc2Cl)CC1)N/N=C/c1cccs1	12
61	S=C(NCC1CCCCC1)Nc1cccnc1	14
62	CCC(=O)c1ccc(OCC(O)CNCc2ccc(F)cc2)cc1 (centres undefined)	25
63	COc1cccc(N(CC(=O)NCC2CCCO2)C(=O)CCC(=O)Nc2nccs2)c1 (centres undefined)	6
64	O=C(CCCc1nc2ccccc2s1)N1CCN(c2ccccc2F)CC1	13
65	Cc1n[nH]c(=O)nc1N/N=C/c1cccs1	14
66	Cc1c(Cl)cccc1NC(=O)Cn1nnc(C(=O)NCc2cccs2)c1N	5
67	CSc1nnnn1-c1ccc(C)c(Cl)c1	-1
68	Cc1ccc(OCc2nnc(SCC(=O)NC3CCCCC3)n2C)cc1	11
69	OC1CCC(NC(=S)Nc2ccc(SC(F)F)cc2)CC1 (centres undefined)	1
70	O=C(Nc1cc(Sc2nc3ccccc3s2)cc([N+](=O)[O-])c1)c1cccc(F)c1F	25
71	CCCn1ncc(CN2CCN(CCc3ccccc3)C(CCO)C2)c1C (centres undefined)	-1
72	COc1ccc(CCNC(=O)C2CC(=O)N(CCc3ccccc3)C2)cc1OC (centres undefined)	5
73	COc1ccc(-n2c(=O)c3c4c(sc3n(CC(=O)Nc3cc(C)[nH]n3)c2=O)CCCC4)c(OC)c1	27
74	CCn1c(SCC(=O)NCc2ccc3c(c2)OCO3)nnc1-c1ccncc1	-10
75	CCOP(=O)(OCC)C(NC(=O)c1ccc(OC)cc1)c1ccccc1 (centres undefined)	13
76	COc1ccccc1NC(=O)c1ccc(-n2cccn2)c([N+](=O)[O-])c1	-3
77	CCCCN=CC1=C(O)CC(c2ccccc2)CC1=O (centres undefined)	13
78	[O-]C1=N/[N+](=C/c2ccccc2)CC1	21
79	O=Cc1ccccc1Oc1nc(N2CCOCC2)nc(N2CCOCC2)n1	20
80	CC1=C(C(=O)N2CCOCC2)C(c2c(F)cccc2F)NC(=O)N1 (centres undefined)	11
81	c1ccc(OCCN2CCN(Cc3nc(-c4ccc5c(c4)OCO5)no3)CC2)cc1	9
82	CNc1cc([N+](=O)[O-])ccc1N/C=C/C(=O)c1ccc2c(c1)OCO2	4
83	CN(NC(=O)c1c(Cl)cccc1Cl)c1cccc(Cl)n1	1
84	CCOc1ccc(NC(=S)N2CCN(C/C=C/c3ccccc3)CC2)cc1	-8
85	Cc1cc(C)cc(N(C(C)C(=O)NCc2ccc3c(c2)OCO3)S(C)(=O)=O)c1 (centres undefined)	18
86	Cc1ccc(-n2c(-c3ccncc3)n[nH]c2=S)c(C)c1	21
87	Cc1ccc(SCCC(=O)NCc2ccncc2)cc1	14
88	Cc1cccc(C)c1NC(=O)C1(NC(=O)Cn2cccc([N+](=O)[O-])c2=O)CCCCC1	9
89	CCOc1ccc(S(=O)(=O)N/N=C(\C)c2ccc(OC)cc2OC)cc1	10
90	CCCn1c(SCC(=O)N2CCCCC2)nnc1C(C)C	14
91	Cc1ccc(-n2c(C)cc(/C=N/NC(N)=S)c2C)cc1	25
92	Cc1cccc(C)c1NC(=O)c1ccc([N+](=O)[O-])s1	17
93	Cc1ccc(OCc2nc(-c3cccs3)no2)c([N+](=O)[O-])c1	10
94	CC(C)(C)c1cc(N)n2nc(C(C)(C)C)cc2n1	-5
95	Cc1ccc(S(=O)(=O)CC(=O)Nc2ccc(S(=O)(=O)Nc3ccccn3)cc2)cc1	11
96	Cc1cc[n+](CC2OCc3ccccc3CO2)cc1	9
97	O=C(O)c1ncn(Cc2ccc(Br)cc2)c1C(=O)O	13
98	CN(C)C=NC(=O)c1cc(C(=O)c2ccccc2)c[nH]1	-4
99	CCCSc1nnc(NC(=O)Nc2ccc(C)cc2)s1	18
100	COc1ccc(CCC(=O)Nc2ccc(Cl)c(S(=O)(=O)N3CCCC3)c2)cc1	6

# Going on with the list:
no.	Molecule	Biofilm kill mix
101	O=C(Cc1cccs1)NCCN1CCOCC1	29
102	CCOc1ccccc1NC(=O)N1CCCC(c2nc(-c3ccc(C)o3)no2)C1 (centres undefined)	10
103	O=C(NCCCn1ccnc1)/C(=C/c1cccs1)NC(=O)c1ccco1	30
104	O=S(=O)(c1ccc(Cl)cc1)N1CCN(C(=S)Nc2ccccc2F)CC1	25
105	CCOC(=O)Cc1nc(-c2cccc(C(F)(F)F)c2)no1	19
106	FC(F)(F)c1ccnc(Oc2ccc(C3=NCCS3)cc2)c1	13
107	O=[N+]([O-])c1ccc(/C=N/NS(=O)(=O)c2ccc(Cl)cc2)o1	4
108	CC(=O)Nc1sc(N/N=C\c2ccco2)nc1-c1cccs1	15
109	Cc1ccc(NC(=O)CCC(=O)OCC(=O)c2ccc(Oc3ccc([N+](=O)[O-])cc3)cc2)cc1	19
110	O=C(CCn1ccnc1)Nc1ccc2ccccc2c1	16
111	O=C(NCCCCO)c1ccc2c3c(cccc13)CC2	10
112	Cc1ccc(COc2ccc(/C=N/O)cc2)cc1	15
113	O=C(Cc1ccc([N+](=O)[O-])cc1)Nc1cccc(C(F)(F)F)c1	4
114	C/C=C(\C)C(=O)N1CC2(CC(c3cccc(NC(=O)CC(c4ccccc4)c4ccccc4)c3)=NO2)C[C@H]1C(N)=O (some centres undefined)	8
115	CCN=C1S/C(=C\c2cc(Br)ccc2OCC(=O)OCC)C(=O)N1CC	11
116	O=C(O)/C(=C\C(=O)c1ccccc1)Nc1ccccc1	13
117	O=C(N/C(=C\c1cccnc1)C(=O)N1CCOCC1)c1ccco1	20
118	Cc1cccc(NC(=O)CN2C(=O)S/C(=C\C(=O)Nc3ccc(Cl)cc3)C2=O)c1	15
119	Cc1cc(C)c(-c2cc(NC(=O)COC(=O)c3ccc(C#N)cc3)n(-c3ccccc3)n2)cc1C	5
120	COC(=O)CSc1[nH]c2ccc(F)cc2c1[N+](=O)[O-]	22
121	O=C(CN1C(=O)CSc2ccc(C(F)(F)F)cc21)Nc1ccccc1	25
122	OC(COCc1ccccc1)CN1CCc2ccccc2C1 (centres undefined)	5
123	Cc1cccc(N(C(=O)CCC(=O)Nc2nccs2)C(C(=O)NC(C)(C)C)c2ccc(O)cc2)c1 (centres undefined)	0
124	O=C1NCC(c2ccccc2)C1C(=O)N/N=C/c1ccc(Cl)s1 (centres undefined)	15
125	Cc1ccc(/C=C2\SC(=S)N(C3CCS(=O)(=O)C3)C2=O)cc1 (centres undefined)	10
126	CSc1sc(-c2nnc(SCC(=O)Nc3ccccc3)n2C)c2c1C=CCC2	17
127	O=C(NCc1cccs1)c1cccnc1SCCS(=O)(=O)c1ccc(C(F)(F)F)cn1	10
128	Cc1ccc(NC(=S)NCCSc2ccc(Cl)cc2)cc1	-5
129	COc1c(C(=O)Nc2ccc3[nH]c(=O)[nH]c3c2)cc2ccccc2c1Br	13
130	CCCc1nnc(NC(=O)c2cn(CC)c3cc(N4CCN(C)CC4)c(F)cc3c2=O)s1	24
131	Cc1c(C(=O)N2CCN(c3ccccn3)CC2)cccc1[N+](=O)[O-]	25
132	Cc1ccc2cc(CN(CC3CCCO3)C(=S)NCc3ccco3)c(=O)[nH]c2c1 (centres undefined)	12
133	COc1ccc(CC(=O)NC2CC(C)(C)NC(C)(C)C2)cc1	13
134	CSCCC(NS(=O)(=O)c1ccc2c(c1)oc(=O)n2C)C(=O)NCc1cccs1 (centres undefined)	8
